Screening data from PubChem BioAssay.
MgrA DNA FP – S. aureus MgrA activity modulators, primary screen, biochemical, S. aureus Newman, fluorescence polarization | MgrA-DNA binding | inhibition, %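 (about 10 µg/mL by stock and volumes)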 | hit rate 0.13% among 84,000 | AID 602314, 2012;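 active = above 50% in either of two replicates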;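 also: 0% = protein plus DNA without compound and 100% = DNA alone without protein; higher means less MgrA bound to DNA so lower polarization; one replicate is shown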
Sa helicase inh – inhibitors of S. aureus replicative helicase, primary screen, biochemical, fluorescence unwinding readout; AID 485395, 2010; replicative DNA helicase (DnaC/DnaB), Staphylococcus aureus; hit rate 0.05% among 120,000; purified S. aureus helicase, fluorescence unwinding assay; about half of the hits fall short of the stated cut; inhibition, %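 (tested at about 80 µM)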;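 active = both duplicates at 50% or more, or one of them with a favoured structure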;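 also: 0% = mean of negative control wells and 100% = mean of positive control wells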
Active calls of the source: *; nt = no result given; & = joins results of further samples. These rows are one share of the data, so the mix of outcomes need not match the whole.

SMILES	MgrA DNA FP	Sa helicase inh
Cc1ccc(C2=NCN(c3ccc(C(=O)O)cc3)C(=S)N2)cc1	2.5	1.0
COc1cc(OC)c2c3c(c(=O)oc2c1)CCC3	nt	6.0
Cc1cc(=O)oc2cc(NS(=O)(=O)c3cccs3)ccc12	-1.9	nt
CCOC(=O)c1cnc(NNC(=O)C(F)(F)F)nc1C(F)(F)F	nt	4.0
C=CCn1c(/N=C/c2ccc(Cl)cc2)nc2ccccc21	1.7	9.0
CCCCCc1c(O)c2ccccc2[nH]c1=O	5.3	-5.0
CC1SCCN1S(=O)(=O)c1ccc(Br)cc1 (stereo not drawn)	nt	8.0
Cc1nn(-c2ccccc2)c2sc(C(=O)NCCc3ccc(S(N)(=O)=O)cc3)cc12	nt	-3.0
CC(C)NC[C@H](O)COc1cccc2ccccc12	0.0&-1.0	nt
O=C(NC1CCS(=O)(=O)C1)c1c(Cl)cccc1Cl (stereo not drawn)	0.2	nt
N#Cc1nc2c(-c3nc4ccccc4s3)c(N)n(-c3ccc(Cl)cc3)c2nc1C#N	-2.3	-7.0
CCN1C(=O)/C(=C\C(C)=C\c2ccccc2)SC1=S	0.6	-1.0
COc1cc2c(cc1OC)C(C)N(c1ncnc3c1cnn3C)CC2 (stereo not drawn)	nt	9.0
C=CCn1c(SC(CCO)C(=O)NCc2ccco2)nc2sc3c(c2c1=O)CCC3 (stereo not drawn)	-0.3	17.0
CC(=O)NC(c1ccccc1F)C1CCCCC1=O (stereo not drawn)	1.6	nt
Cn1nc(C(C)(C)C)c(NC(=O)c2ccc(F)cc2)c1C(C)(C)C	0.9	nt
O=c1[nH]n(-c2ccccc2Cl)c(=O)c2ccccc12	nt	4.0
CN(Cc1coc(-c2ccccc2)n1)Cc1coc(-c2ccccc2)n1	nt	-23.0
O=C1/C(=C/c2ccco2)CCC/C1=C\c1ccco1	6.7	nt
CCOc1ccc2nc(NCCCNC(=O)C3CCCO3)c(C#N)cc2c1 (stereo not drawn)	3.5	-2.0
Cc1nn(-c2ccccc2)nc1CNS(=O)(=O)c1cccc2ccccc12	3.0	nt
O=C(OCc1nc(-c2ccccc2)oc1COC(=O)c1ccco1)c1ccco1	2.0	10.0
CC(CN1CCN(Cc2ccccc2)CC1)OC(=O)c1ccco1 (stereo not drawn)	nt	3.0
CCc1cccc(CC)c1NC(=O)Cn1nc(C(F)(F)F)nc1N	nt	0.0
CCCc1c(O)nc(SCC(=O)N2CCCCC2)[nH]c1=O	-1.6	4.0

Quoted from the listing:
`C=CCn1c(SC(CCO)C(=O)NCc2ccco2)nc2sc3c(c2c1=O)CCC3` (stereo not drawn) in Sa helicase inh is listed with 17.0
`CCc1cccc(CC)c1NC(=O)Cn1nc(C(F)(F)F)nc1N` in Sa helicase inh is listed with 0.0
`CC1SCCN1S(=O)(=O)c1ccc(Br)cc1` (stereo not drawn) in Sa helicase inh is listed with 8.0
`CC(CN1CCN(Cc2ccccc2)CC1)OC(=O)c1ccco1` (stereo not drawn) in Sa helicase inh is listed with 3.0
`CCN1C(=O)/C(=C\C(C)=C\c2ccccc2)SC1=S` in Sa helicase inh is listed with -1.0

Whole records, quoted from the list. Order of screens: MgrA DNA FP | Sa helicase inh
Cc1ccc(C2=NCN(c3ccc(C(=O)O)cc3)C(=S)N2)cc1 as listed: 2.5 | 1.0
CC(C)NC[C@H](O)COc1cccc2ccccc12 as listed: 0.0&-1.0 | nt
CC1SCCN1S(=O)(=O)c1ccc(Br)cc1 (stereo not drawn) as listed: nt | 8.0

Additional entries follow:
SMILES	MgrA DNA FP	Sa helicase inh
C[C@H](NC(N)=O)C(=O)Nc1ccccc1	nt	5.0
C=CS(=O)(=O)Cc1ccccc1	nt	12.0
COc1ccc(/C=C/C(=O)N[C@@H](C)C(=O)O)cc1	nt	6.0
Cc1cccn2c(=O)c(C=Nc3ccccc3)c(NCCO)nc12	nt	-5.0
CCOC(=O)C(CC)n1cnc2c(cnn2-c2ccc(Cl)cc2)c1=O (stereo not drawn)	nt	-4.0
Nc1nc(-c2ccccc2)c(NC(=O)c2ccccc2Cl)s1	0.5	-13.0
Cc1ccc(OCCn2ncc3ccccc3c2=O)c(C)c1	-1.1	4.0
Cc1ccccc1Nc1ccc2noc3c2c1C(=O)c1ccccc1-3	2.2	-7.0
COc1ccc(C(=O)Nc2nn3c(CC(C)C)nnc3s2)cc1	2.0	6.0
Fc1ccc(-n2c(C34CC5CC(CC(C5)C3)C4)n[nH]c2=S)cc1	0.5	2.0
CC(=O)N[C@@H](CSC/C=C(\C)CCC=C(C)C)C(=O)O	-2.2	nt
COc1cc(CC/C(C)=N/O)ccc1OCc1ccc(Cl)c(Cl)c1	1.0	nt
CN(CC(=O)N1CCc2ccccc21)S(=O)(=O)c1ccc2c(c1)CCCC(=O)N2	nt	22.0
Cc1cc(C)nc(/N=C(/N)N2CCCCC2)n1	3.9	0.0
CSC1=NC=C(C#N)C2=NC(c3c(F)cccc3Cl)NN12 (stereo not drawn)	nt	2.0
Cc1cc2nn(-c3ccccc3)nc2cc1NC(=O)C(C)C	nt	23.0
Cc1ccc(NC(=O)Nc2ccc(C(N)=O)cc2)cc1	-0.2	-4.0
O=C(O)CCSC1CC(=O)N(c2ccc(F)cc2)C1=O (stereo not drawn)	0.2	-1.0
CCOC(=O)c1c(SC)nc2ccc(Cl)cc2c1N1CCN(C)CC1	nt	-13.0
Cc1c(N2C(=O)c3ccccc3C2(O)c2ccccc2)c(=O)n(-c2ccccc2)n1C (stereo not drawn)	-0.2	22.0
CC1=C/C(=N/NC(=O)C2CC2)CC1	nt	5.0
COc1ccc(C(=O)NCC(=O)OCc2nc3ccccc3c(=O)n2CC#N)cc1OC	nt	-16.0
COc1ccccc1-c1cc(C(=O)NCc2cccs2)no1	nt	11.0
CC(=O)NC(=O)c1cc2cc(Cl)cc(Cl)c2oc1=Nc1ccc(C#N)cc1	-0.4	nt
CC1=CC(=C(C#N)C#N)C=C(C)N1CCC(C)C	nt	4.0
(further entries)
SMILES	MgrA DNA FP	Sa helicase inh
COc1ccccc1S(=O)(=O)Cc1ccc(C(=O)NCCN2CCCC2)o1	nt	7.0
Cc1nn(C(=O)c2cccs2)c(N)c1-c1ccccc1	nt	-3.0
CCOCC(=O)NCc1ccc(OC)cc1	0.1	17.0
Nc1noc(Cc2c(Cl)cccc2Cl)n1	-1.8	nt
CCOc1cc(C(=O)NCCN(C)C)cc(OCC)c1OCC	nt	35.0
c1cn2cc(Cc3nnc4n3CCCCC4)nc2s1	nt	10.0
OCCOc1nnnn1-c1ccccc1	nt	8.0
CC(C)(C)OC(=O)N1CCC(CNS(=O)(=O)c2cccc3nonc23)CC1	nt	-36.0
CC(=O)CS(=O)(=O)c1ccc(Cl)cc1	-2.1	nt
COC(=O)Cn1nnnc1-c1ccc(C)cc1	nt	-20.0
COc1ccc(C(=O)NCc2nnc(SC)n2-c2ccc(OC)cc2)cc1	nt	6.0
OCCSc1ncnc2sc3c(c12)CCC3	nt	6.0
CN(C)CCNc1cc(N2CCOCC2)c2noc3c2c1C(=O)c1ccccc1-3	nt	-164.0
O=S(=O)(Cc1nc2ccccc2[nH]1)c1ccccc1	-0.8	-1.0
O=C(NCCc1ccc(Cl)cc1)C1CCN(C(=O)NC2CCCCC2)CC1	-2.5	10.0
N#CC(C#N)=CNc1cc(C(F)(F)F)ccc1N1CCOCC1	nt	-13.0
CN(C1=CC(=O)c2ccccc2C1=O)c1ccccc1	nt	-4.0
CC1(C(=O)c2ccccc2)C2c3cc(Br)ccc3OC(=O)C21C(=O)N1CCOCC1 (stereo not drawn)	nt	9.0
CCOC(=O)c1c(NC(=O)C(C)Sc2ncccn2)sc2c1CCC2 (stereo not drawn)	nt	-7.0
CCOC(=O)c1ccc(NC(=O)c2sc(NC(=O)CCc3ccccc3)c(C(=O)OCC)c2C)cc1	-2.0	nt
CN1CCN(CCCN2c3ccccc3Sc3ccc(C(F)(F)F)cc32)CC1	-0.4&-1.1&0.2	nt
CC1COc2c(N3CCN(C)CC3)c(F)cc3c(=O)c(C(=O)N4CCN(c5ncccn5)CC4)cn1c23 (stereo not drawn)	nt	-7.0
O=C(CSc1nc2ccccc2c(=O)n1-c1ccccc1F)NC1CC1	2.2	-21.0
CC(=O)N1CCOc2cc(S(=O)(=O)N3CCCCC3C)ccc21 (stereo not drawn)	0.3	5.0
N#C/C(=C\c1ccccc1[N+](=O)[O-])c1nc(-c2cc3c(ccc4ccccc43)oc2=O)cs1	-1.4	nt
Later entries
SMILES	MgrA DNA FP	Sa helicase inh
C=CCn1c(Cl)c(/C=N/NC(N)=O)s/c1=N\S(=O)(=O)c1cccs1	nt	-12.0
CCCN(Cc1cccs1)C(=O)Nc1ccccc1CC	-1.3	-3.0
Oc1ccc2ccccc2c1CN1CCOCC1	3.4	14.0
CNC(=O)C1CCC(CNS(=O)(=O)c2ccc(C)cc2)CC1 (stereo not drawn)	0.8	9.0
CCCC1NC(=S)N(c2ccccc2)N1 (stereo not drawn)	-5.4	4.0
Cc1ccc(Cn2ccsc2=NC(=O)CSc2nnc(-c3ccc(Cl)cc3)o2)cc1	nt	-4.0
CC(C)(C)n1ncc2c(=O)n(CC(=O)NC3CCCC3)cnc21	nt	-26.0
CCN(CC)c1ccc(NC(=O)Nc2ccc(OCc3ccccc3)cc2)cc1	-0.9	nt
COc1cc(C2C(C#N)=C(N)Oc3n[nH]c(C(F)(F)F)c32)ccc1OCC(N)=O (stereo not drawn)	-1.8	3.0
CCCCNS(=O)(=O)c1ccc2nc(SCCC)[nH]c2c1	nt	-3.0
FC(F)(F)c1ccccc1-c1nn[nH]n1	-2.7	nt
CC(OC(=O)c1ccc2ccccc2c1O)C(=O)N1CCc2ccccc21 (stereo not drawn)	nt	-12.0
COc1cc2c(C(=O)NC3CCCC(C)C3C)cn(C)c(=O)c2cc1OC (stereo not drawn)	nt	-2.0
c1ccc2c(c1)NC(c1ccc3c(c1)CCO3)n1cccc1-2 (stereo not drawn)	0.0	nt
Cc1nc(/C=C(/N)C#N)cn1-c1ccccc1	-2.2	12.0
O=C(CSC(=S)N1CCOCC1)c1cc(Br)cc(Br)c1O	-0.3	7.0
CNC(=S)N/N=C/c1cccc([N+](=O)[O-])c1	0.7	nt
CC1(C)N=C(C(=O)c2ccccc2)N(O)C1(C)O (stereo not drawn)	1.6	10.0
CC(C)COc1ccc(S(=O)(=O)n2cc(F)c(=O)[nH]c2=O)cc1	-0.1	8.0
Cc1cccc(C(=O)N2CCC(C)CC2)c1	-3.5	0.0
O=C1CCC(C(=O)OCC(=O)Nc2ccc(N3CCOCC3)cc2)=NN1	nt	-11.0
COc1ccc(/C=C2\CCC(C3CCCC3)C2=O)cc1Cn1cccn1 (stereo not drawn)	-1.1	9.0
CC1=CC(c2ccc(Cl)cc2)n2nc(NC(=O)CCCC(=O)O)nc2N1 (stereo not drawn)	2.6	7.0
COC(=O)CSc1ccc2nnc(-c3ccccc3)n2n1	nt	29.0
COc1ccccc1-[n+]1c(C)cc(C)cc1C	-0.1	-5.0
More results follow:
SMILES	MgrA DNA FP	Sa helicase inh
O=C(O)CCC(=O)N1CCC(c2ccccc2)=N1	nt	-14.0
O=C(CCc1ccccc1)Nc1nnc(SCC(=O)N2CCCCCC2)s1	nt	-16.0
Cc1ccc(CN2CCC(CNS(=O)(=O)c3ccc4c(c3)CCCC(=O)N4)C2)cc1 (stereo not drawn)	nt	10.0
Nc1cc(Cl)ccc1N1CCCCC1	4.7	14.0
S=C(NCC1CCCCC1)Nc1cccnc1	1.9	10.0
CCCCn1c(Br)nc2c1c(=O)[nH]c(=O)n2C	2.4	10.0
Cc1ccc(CN2CCN(/N=C/C=C/c3ccco3)CC2)cc1	nt	-8.0
Cc1ccc(OCCn2c(N)nc3ccccc32)cc1	-5.1	9.0
O=C(Nc1ccc(Cl)cn1)C1(F)C(F)(F)C(F)(F)C(F)(F)C(F)(F)C1(F)F	-4.0	15.0
O=c1cc(-c2ccc(Cl)cc2)oc2ccccc12	1.9	nt
Cn1c(SCc2ccccc2)nc2cc(C(F)(F)F)cnc21	-1.6	nt
CCCNS(=O)(=O)c1ccc(OCC(=O)NCc2ccco2)cc1	-4.1	3.0
CC(=O)Nc1c2c(nn1-c1ccc(C)cc1)CSC2	nt	1.0
CCOc1ccc(C2(CC(=O)Nc3ccccc3)C(=O)c3ccccc3C2=O)cc1OC	2.2	4.0
Cc1sc2nc(-c3ccc(C(C)(C)C)cc3)oc(=O)c2c1C	1.5	nt
CSc1nccc(-c2sc(-c3ccc(Cl)cc3)nc2C)n1	-3.2	nt
CC1CN(CC(O)COc2ccccc2C(C)C)CC(C)O1 (stereo not drawn)	nt	-20.0
Cc1ccc(NC(=O)COc2ccc(Cl)cc2)cc1N(C)C	0.5	4.0
COc1ccc(CC2CCC(=NOC(=O)c3ccc([N+](=O)[O-])cc3)CC2)cc1 (stereo not drawn)	-1.4	nt
CCCCN(CC)S(=O)(=O)c1ccc(C(=O)N=c2sc(C(=O)OCC)c(C)n2C)cc1	nt	8.0
COc1ccccc1NS(=O)(=O)c1ccc(C(=O)N2CCN(c3ccccn3)CC2)cc1	nt	12.0
O=C(O)CSCC(=O)Nc1ccc(Oc2c(Cl)cccc2Cl)nc1	-2.8	nt
OC(CCN1CCCCC1)(c1ccccc1)C1CC2C=CC1C2 (stereo not drawn)	0.9	nt
CCCS(=O)(=O)c1nc2ccccc2n1Cc1cc(C)ccc1C	nt	-2.0
CCCc1nc(C)cc(N2CCCC2)n1	nt	-11.0
CC1=NOC(=O)/C1=C\c1ccc(O)c(O)c1	0.9	26.0

Part of the list above in another layout.
Values in the order: MgrA DNA FP, Sa helicase inh
> COc1ccc(/C=C/C(=O)N[C@@H](C)C(=O)O)cc1
→ nt, 6.0
> Cc1cccn2c(=O)c(C=Nc3ccccc3)c(NCCO)nc12
→ nt, -5.0
